High-throughput results deposited in PubChem by Broad Institute.
T cruzi inh: blocks replication of Trypanosoma cruzi | 300,000 tested, 1.4% active | T. cruzi beta-gal in NIH3T3, luminescence, 90 h | inhibition, % (concentration not given with the values);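 active means mean inhibition across valid replicates above about 55%, limit read from the data; inconclusive means mean below that limit but half or more replicates reach it; inactive means mean below it, under half of replicates reach it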;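 further: signal also drops with host cell toxicity which is not excluded here; 0% = plate median of DMSO wells and 100% = zero luminescence signal; higher percent means less beta-gal luminescence so fewer parasites; stock transfer was 50 nL into about 50 µL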
RanGTP-Imp inh: disruptors of Ran-importin-beta complex formation – biochemical, FRET, CFP-Ran, YFP-importin-beta, homogeneous, primary screen. cell-free CFP-Ran/YFP-importin-beta FRET ratio. inhibition, % (test concentration not listed). 300,000 tested, 1.1% active. AID 2216;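 active means most replicates above 15%; inconclusive means exactly half above 15%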;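 further: 0% = DMSO wells and 100% = Ran loaded with GDP instead of GTP; wells of about 40 µL received 100 nL stock; the first replicate is given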
Calb FLC: affects C. albicans growth with fluconazole. AID 1979. growth inhibition, % (concentration not given with the values). C. albicans CaCi-2 (fluconazole-resistant clinical isolate) + fluconazole, Alamar Blue growth, 48 h. 300,000 tested, 0.57% active;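 active means most replicates above 75%; inconclusive means exactly half above 75%; inactive means most below 75%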;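 further: all wells also contain fluconazole at 8 µg/ml as a sub-toxic cotreatment; 0% = median of DMSO wells and 100% = median of geldanamycin control wells; wells of about 8 µL received 7.5 nL stock; the first replicate is given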
Beta cell apopt: beta cell apoptosis inhibition; 300,000 tested, 0.8% active; AID 435005; protection from apoptosis, % (no concentration beside the values); INS-1E cytokine-induced death, ATP luminescence, 48 h; percent of positive-control rescue, neutral wells zero;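 active means all replicates at 75% or more, or half of them and the mean; inconclusive means half reach 75% but not the mean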;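 further: 0% = cytokine-treated negative control wells and 100% = positive control rescue; higher means more ATP so stronger rescue from cytokine killing; wells of about 40 µL received 100 nL stock; the first replicate is given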
ALR inh: human ALR oxidase inhibition via reduced H2O2; P55789; 290,000 tested, 3.8% active; AID 485317; inhibition, % (no concentration beside the values); purified ALR, DTT oxidation, H2O2 HRP-luminol luminescence;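 active means mean and each replicate at 75% or more; inconclusive means only one of the two met; inactive means neither met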;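 further: stock transfer was 7.5 nL into about 7.5 µL; 0% = neutral wells and 100% = wells with inactivated enzyme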
Target sequence (P55789 whole entry, looked up): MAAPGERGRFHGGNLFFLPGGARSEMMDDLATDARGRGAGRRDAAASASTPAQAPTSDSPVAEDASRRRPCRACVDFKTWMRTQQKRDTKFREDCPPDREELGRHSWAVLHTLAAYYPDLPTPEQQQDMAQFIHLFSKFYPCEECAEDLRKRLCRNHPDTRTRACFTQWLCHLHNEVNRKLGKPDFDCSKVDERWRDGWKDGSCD
MLL AF4-AF9 inh: inhibitors of human MLL-AF4/AF9 interaction. AlphaScreen, biotin-AF4 peptide binding to FLAG-AF9. inhibition, % at 10 µM. 350,000 tested, 0.47% active. AID 651704;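 active means every replicate reaching a set inhibition limit, whatever the replicate mean, cut at about 25% in these data; inconclusive means mean inhibition reaches that limit but some replicates miss it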;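 further: 0% = plate neutral control median and 100% = total signal loss; the record names both 10 and 1 µM as test concentration; the first replicate is given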
Target sequence (P42568 whole entry, looked up): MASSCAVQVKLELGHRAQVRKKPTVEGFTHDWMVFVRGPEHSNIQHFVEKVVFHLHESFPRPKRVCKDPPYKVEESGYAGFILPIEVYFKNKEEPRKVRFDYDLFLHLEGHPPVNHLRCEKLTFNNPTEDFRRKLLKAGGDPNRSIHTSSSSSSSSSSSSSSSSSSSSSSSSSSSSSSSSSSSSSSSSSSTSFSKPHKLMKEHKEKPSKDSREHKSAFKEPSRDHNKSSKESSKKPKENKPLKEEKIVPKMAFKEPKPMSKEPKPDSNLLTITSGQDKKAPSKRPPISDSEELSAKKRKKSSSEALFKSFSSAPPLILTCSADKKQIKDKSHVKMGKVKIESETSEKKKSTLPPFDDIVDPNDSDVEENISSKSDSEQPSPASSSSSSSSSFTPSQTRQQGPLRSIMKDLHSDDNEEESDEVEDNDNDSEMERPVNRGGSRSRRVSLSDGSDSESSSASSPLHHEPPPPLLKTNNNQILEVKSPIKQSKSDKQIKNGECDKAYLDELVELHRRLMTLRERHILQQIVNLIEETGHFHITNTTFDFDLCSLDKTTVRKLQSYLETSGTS
FGF22 binding: FGF22 (human) thermal shift binding; recombinant FGF22 thermal shift, SYPRO orange fluorescence; percent of sucrose octasulfate shift, DMSO zero; Q9HCT0; calls only at 9.99 µM; 340,000 tested, 1.5% active; AID 651658;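 active means melting point raised past a set limit in the mean and every replicate; inconclusive means no clear call; three in four hits are not shown here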
Target sequence (Q9HCT0 whole entry, looked up): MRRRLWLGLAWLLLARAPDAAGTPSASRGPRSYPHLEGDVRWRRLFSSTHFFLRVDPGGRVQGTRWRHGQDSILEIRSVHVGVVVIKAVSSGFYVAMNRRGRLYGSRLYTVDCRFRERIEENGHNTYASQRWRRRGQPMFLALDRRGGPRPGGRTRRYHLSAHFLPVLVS
rRNA inh HTS: selective bacterial rRNA inhibition in E. coli; E. coli WT GFP vs humanized-ribosome RFP mutants, fluorescence, 24 h; stronger effect = lower value; DMSO median 0, no signal -100; GFP signal change (wild-type ribosome), % (test concentration not listed); 350,000 tested, 1.6% active; AID 720706;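 active means significant combined selectivity score with lowered wild-type GFP, culture density cut under 30%, mutant RFP and density less affected; inactive means any of these conditions unmet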; further: one replicate is shown; some compounds called inactive have numbers as strong as hits
rRNA inh HTS OD600: also measured in rRNA inh HTS; calls as there; OD600 change, %; measured here: OD600 growth;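 optical density of the mix in the first replicate; 0 = DMSO median and -100 = no signal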
rRNA inh HTS RFP: second read-out of rRNA inh HTS, no call of its own (marks repeat the call); RFP signal change, %; measured here: RFP humanized mutant strains;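 first replicate; 0 = DMSO median and -100 = no signal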
Numbers without * were called inactive; i = inactive; ? = inconclusive; . = not tested or not shown. An excerpt; rates above refer to the full screens.

Results follow in this order: T cruzi inh | rRNA inh HTS RFP | rRNA inh HTS | FGF22 binding | Beta cell apopt | RanGTP-Imp inh | MLL AF4-AF9 inh | Calb FLC | rRNA inh HTS OD600 | ALR inh
O=S(=O)(NCC1CCCO1)c1ccc2oc3ccc(S(=O)(=O)NCC4CCCO4)cc3c2c1 (centres undefined)
    19.7 | . | . | . | . | 0.3 | . | 0.7 | . | -14.6
CC1CCN(C(=O)CSc2nnc(-c3ccc(S(=O)(=O)N4CCOCC4)cc3)n2C)CC1
    -8.1 | . | . | . | -6.1 | -0.9 | . | 4.8 | . | -3.1
Cc1cccc(CCNC(=O)CCc2c(C)nc3ncnn3c2C)c1
    -5.0 | . | . | . | -0.7 | 0.5 | . | -2.1 | . | -9.7
Cc1cc(NC(=O)c2ccc(C)o2)no1
    -21.7 | 5.1 | 23.1 | i | . | 4.5 | 0.3 | 3.1 | 23.2 | -5.0
O=C(COC(=O)c1ccccc1NS(=O)(=O)c1cc([N+](=O)[O-])ccc1Cl)c1ccccc1
    -5.2 | . | . | . | 2.3 | -0.9 | . | 0.4 | . | 2.9
NC(=O)c1nsc(C(=O)N(c2ccccc2)C(C(=O)NCC2CCCO2)c2ccc(F)cc2)c1N (centres undefined)
    12.1 | -2.5 | 9.8 | i | 3.1 | -1.9 | -0.3 | 1.7 | 10.2 | .
Cc1ccc(/C=C/C(=O)N2CCc3ccccc32)o1
    41.0 | . | . | . | -6.9 | -3.6 | . | 6.9 | . | 40.1
CCOc1ccc(-n2cc(C(=O)Nc3cccc(Cl)c3)c3cc(OC)c(OC)cc3c2=O)cc1
    64.4* | . | . | . | 9.9 | -0.3 | . | 40.5 | . | .
NS(=O)(=O)c1ccc(CCNC(=O)c2ccccc2-c2ccccc2)cc1
    3.1 | 0.5 | 8.1 | i | -5.6 | -3.4 | -2.3 | -1.4 | 5.0 | -4.7
O=C(NC12CC3CC(CC(C3)C1)C2)N1CCN(c2ncccn2)CC1
    2.8 | 1.9* | -20.7* | i | 0.7 | -1.9 | -0.7 | -20.6 | -9.0* | 0.7
CCCNC(=O)CCNC(=O)c1ccc(C(C)(C)C)cc1
    2.2 | . | . | . | -0.6 | -0.2 | . | -5.1 | . | .
O=C(CCCCCN1C(=O)c2cccc3cccc(c23)C1=O)N1CCOCC1
    16.0 | . | . | . | -2.5 | ? | . | 107.5* | . | -4.9
CCCOc1ccc(C2C(=O)N(C3CCCCC3)CC(=O)N2CCC)cc1OC (centres undefined)
    19.4 | . | . | . | 4.3 | -1.2 | . | ? | . | -7.7
CCCCS(=O)CC(CS(=O)CCCC)OC(=O)c1ccc(C)cc1 (centres undefined)
    -3.1 | . | . | . | -0.4 | 4.1 | . | -11.3 | . | -11.9
CC1=Nc2cccc3cccc(c23)N1C
    0.8 | . | . | . | 2.4 | -4.6 | . | -1.0 | . | 99.1*
CCc1ccc(OCC(=O)NC(=S)Nc2ccc(C(=O)O)cc2)cc1
    -11.2 | -2.5 | -9.3 | i | -1.5 | ? | -0.8 | 5.1 | -0.9 | -3.3
c1ccc(CSc2ncn(-c3ccccc3)n2)cc1
    1.1 | . | . | . | -5.4 | 4.7 | . | -29.9 | . | -2.0
FC(F)Oc1ccc(NC(=S)N2CCc3ccccc32)cc1
    -28.1 | 4.3 | -30.9 | i | -1.9 | -3.5 | 0.7 | -0.3 | -57.5 | 8.9
Clc1ccc(SCc2cc(-c3ccc(Cl)cc3)on2)cc1
    15.7 | . | . | . | -5.1 | -2.8 | . | -6.1 | . | -5.1
O=C(COc1nncc2ccccc12)NCC(F)(F)F
    -5.7 | -3.9 | 7.9 | i | -2.3 | -47.5 | -1.7 | 0.4 | 0.2 | -10.2
CC(C)c1ccc(NC(=S)N2CCCC2)cc1
    -27.5 | 0.4 | -2.8 | i | -1.2 | -2.6 | -1.7 | -2.9 | -1.6 | -24.9
COc1ccccc1OCc1nc(C#N)c(NCc2ccco2)o1
    -0.2 | . | . | . | -1.5 | -2.5 | . | 1.2 | . | 2.5
CC1CC(C)CN(S(=O)(=O)c2ccc(NC(=O)CN3C(=O)NC(C)(c4ccccc4)C3=O)cc2)C1 (centres undefined)
    -3.9 | 2.0 | -20.6 | i | -7.2 | 6.8 | -4.0 | -7.6 | -25.1 | -0.8
COC(=O)c1cccnc1SCc1ccccc1
    13.4 | . | . | . | -0.3 | 1.4 | . | -7.6 | . | .
CS(=O)(=O)c1cccc(C(=O)OCC(=O)NCc2cccs2)c1
    . | 0.4 | 5.6 | i | -3.3 | . | -0.7 | . | 4.3 | .
O=C(NN=C1CCCCCCC1)c1ccc2ccccc2n1
    -11.0 | -1.4 | -0.6 | i | -5.2 | 0.8 | -9.3 | 18.6 | 20.2 | -6.0
Cc1ccc(Cl)c(N/C=C/C(=O)c2ccccc2)c1
    5.3 | 4.0 | 9.8 | i | . | -0.3 | -17.2 | 1.8 | 19.1 | 10.6
NNc1nc(Nc2ccccc2)nc(Nc2ccccc2)n1
    40.9 | -12.1 | -58.2 | i | 4.0 | -2.8 | 0.5 | -8.4 | -60.9 | -4.1
O=C(CNC(=O)C1CCCCC1)NCCCO
    -15.5 | . | . | . | -2.5 | -1.2 | . | 11.9 | . | -11.9
CC(=O)Nc1ccc(S(=O)(=O)N(C)CC(=O)OCC(=O)N2CCc3ccccc32)cc1
    -6.3 | . | . | . | -4.7 | -0.2 | . | -1.2 | . | -6.2
CCC(C)n1ncn(-c2ccc(N3CCN(c4ccc(O)cc4)CC3)cc2)c1=O (centres undefined)
    -16.6 | 0.8 | -10.2 | i | 2.8 | -3.4 | 3.3 | 4.9 | -21.7 | .
CNc1c(NS(=O)(=O)c2cc(Cl)ccc2OC)c(=O)oc2ccccc12
    1.0 | 4.8 | -4.1 | i | -5.9 | 8.1 | -2.0 | -37.5 | 4.1 | 61.2
CC1CCN(C(=O)C(=O)c2cn(CC(=O)N3CCCC3)c3ccccc23)CC1
    -7.9 | 0.3 | 6.4 | i | 2.8 | -0.3 | 0.3 | -5.3 | 16.3 | 1.2
Cc1nccn1Cc1ccccc1
    -18.7 | 4.0 | 6.9 | i | 1.5 | ? | -1.4 | . | 14.1 | -29.7
Cc1cc(C)nc(NNC2=CC(=O)CC(C)(C)C2)n1
    -12.8 | 9.6 | 7.6 | i | -7.3 | 5.4 | 0.9 | -0.7 | 7.0 | -1.3
O=C(Nc1cccc([N+](=O)[O-])c1)C1C2CCCCC21 (centres undefined)
    12.0 | 7.6 | 7.0 | i | -3.4 | 6.0 | 1.5 | -1.3 | 4.1 | 2.7
CC(C)(C)C1CCc2onc(C(=O)NC3CCCC3)c2C1 (centres undefined)
    5.9 | -1.6 | 3.0 | i | 0.8 | -1.4 | 7.0 | -4.8 | 5.2 | -4.8
CC(C)(C)c1ccc(C(=O)Nc2cccnc2)cc1
    -3.4 | 0.4 | -2.0 | i | 0.8 | 0.1 | -3.5 | 0.2 | 2.8 | 1.7
CCOc1ccc(S(=O)(=O)NCCC(=O)NCCCSc2ccccc2)cc1
    -23.9 | 1.3 | -11.6 | i | -14.2 | 0.8 | -1.0 | 1.0 | -12.5 | -18.1
CN(CC(=O)Nc1ccc(Cl)cc1)C(=O)Cn1[nH]c(=O)c2ccccc2c1=O
    -6.2 | 3.2 | 6.6 | i | . | -3.1 | -11.5 | -2.1 | 6.5 | -6.3
O=C(NCCN1CCOCC1)c1cc2c(=O)n3ccccc3nc2n1Cc1ccccc1
    -11.7 | . | . | . | -3.2 | 5.6 | . | 2.4 | . | 22.4
O=C(CCN1C(=O)c2ccccc2C1=O)NCCN1CCOCC1
    -14.8 | . | . | . | -3.0 | -1.4 | . | -7.1 | . | -17.6
FC(F)(F)c1cccc(Cc2noc(CN3CCSCC3)n2)c1
    -3.3 | 0.4 | -0.8 | . | -3.9 | -3.9 | -0.7 | 4.0 | 10.1 | .
O=C(c1ccccc1)n1c(=O)c(F)cn(COCCBr)c1=O
    -2.2 | -1.1 | 5.4 | i | -5.1 | 1.3 | -2.3 | 9.1 | 8.4 | 30.9
Cc1oncc1C(=O)Nc1ccc2ccccc2c1
    1.4 | -0.3 | -9.0 | i | . | 4.8 | -18.8 | -4.8 | -2.0 | .
CCN(CC(=O)Nc1c(F)cccc1F)C(=O)CC1CCCC1
    -2.6 | -1.6 | 8.8 | i | 2.4 | 1.8 | 0.8 | . | 9.0 | -11.1
CCOc1ccc(N2C(=O)CC(Sc3nc(C)cc(C)c3C#N)C2=O)cc1 (centres undefined)
    1.4 | -1.3 | 10.2 | i | -3.9 | -1.5 | 3.3 | -17.0 | 5.2 | 2.3
C=CCN1C(=O)c2ccc(C(=O)N(CC)CC(=O)Nc3cc(Cl)ccc3C)cc2C1=O
    -1.9 | -2.1 | 12.8 | i | 0.7 | 5.1 | -50.4 | -7.4 | 16.8 | .
CCOc1ccccc1Nc1ccnc2cc(Cl)ccc12
    16.7 | -9.5 | -16.0 | . | 23.3 | -3.6 | -2.1 | 24.8 | -38.0 | -4.6
COc1cc2c(cc1OC)CN(C(=O)CSc1nc(C)cc(C)c1C#N)CC2
    9.2 | . | . | . | 5.8 | 5.8 | . | 1.2 | . | -7.6
COc1ccc(C2(CNC(=O)/C=C/c3ccco3)CCCC2)cc1OC
    15.1 | 3.1 | 9.9 | i | -1.4 | -0.3 | -10.8 | 16.2 | 12.6 | -3.9
Cc1sc2nc(CSCC(=O)Nc3ccc(N4CCOCC4)cc3)[nH]c(=O)c2c1C
    -5.1 | -1.0 | 3.3 | i | 0.9 | -4.4 | 0.1 | 1.0 | 1.5 | 0.8
O=C(COc1cccc(C(F)(F)F)c1)Nc1ccc2[nH]ncc2c1
    -11.3 | . | . | i | -1.9 | 6.7 | 0.4 | 12.3 | . | -31.0
COc1ccc(NC(=O)NNC(=O)COc2ccc(Cl)cc2C)cc1OC
    -6.2 | 3.9 | 0.5 | i | -1.1 | 2.0 | 0.5 | -3.5 | -1.9 | -15.5
CCc1ccc(C(=O)Nc2ccc3c(c2)n(C)c(=O)n3C)cc1
    -6.4 | 1.6 | 4.5 | i | -3.9 | -0.3 | 1.7 | -2.4 | 0.1 | -11.1
COc1ccc(OCC(=O)NNC(=S)NC(=O)c2ccc(Br)o2)cc1
    -18.7 | 0.1 | -3.7 | i | -4.5 | -0.4 | -2.6 | 22.4 | -6.0 | 20.1
